# Bm FixLJ act: activators of Burkholderia fixLJ two-component system; B. multivorans fixK-promoter GFP reporter, 18 h; stronger effect = higher value; z-score (test concentration not listed); actives 0.3% (n = 29,000); AID 1918990;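 active = replicate mean overnight rise in green fluorescent reporter signal, 3 or more SD over negative controls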;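 also: score is relative to vehicle wells of the plate; 300 nL library stock went into each well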
# * = called active by the depositor. Some of the compounds tested; rates above refer to the full screens.
SMILES,Bm FixLJ act
Cc1ccccc1NC(=O)CCc1c(C)nc2c(c1C)c(=O)n(C)c(=O)n2C,-0.26
CCOc1cc(CNCCSc2nnnn2C)cc(Cl)c1OCc1ccc(Cl)cc1,1.4
COc1ccc(C2=NC(C)(C)N(CC(=O)Nc3ccc(F)c(F)c3)C2=O)cc1,-2.8
CCc1ccc(S(=O)(=O)N(C(=O)Oc2ccccc2)c2ccc3oc(C)c(C(=O)OC)c3c2)cc1,-0.43
Cc1cc(N2CCN(C(=O)C3CC(=O)N(C(C)C)C3)CC2)ccn1 (stereo not given),-0.19
Cc1ccc(NC(=O)CSc2nc3c(oc4ccccc43)c(=O)n2Cc2ccco2)cc1,-0.43
CCNC(=O)C1CC(N)CN1C(=O)c1ccc(OC)c(OC)c1 (stereo not given),-0.76
CCCn1c(CCC(=O)Nc2ccc(OCC)cc2)nc2cccnc21,-1.4
CCCN(CCC)C(=O)Cn1c(=O)n(-c2ccc(C)c(C)c2)c(=O)c2c3c(sc21)CCCCC3,-1.3
CC1(CCC(=O)N2CC(O)C(Cc3ccc4ccccc4n3)C2)CC1 (stereo not given),0.88
CC(C)c1ccc(/C=C(\C#N)c2nc(-c3ccc(O)cc3)cs2)cc1,8.4*
CCc1ccc(NC(=O)c2sc3nc(C)c(Cl)c(C)c3c2NC(=O)c2ccccc2)cc1,-2
O=C(O)c1cc(-c2cccc3ncccc23)cc(S(=O)(=O)N2CCOCC2)c1,-0.08
COCCCNC(=O)CSc1nc2cc(OC)c(OC)cc2c2nc(-c3ccccc3)nn12,0.35
Fc1ccccc1N1CCN(c2c3c(nc4nncn24)CCC3)CC1,-1.1
CC(=O)Nc1ccccc1OCc1cc(=O)n2c3c(sc2n1)CCCC3,-0.24
Cc1ccc(-c2nc(CS(=O)CC(=O)N3CCN(c4ccccc4)CC3)c(C)o2)cc1 (stereo not given),0.02
Cc1ccc(Cl)cc1N1CCN(C(=O)CCc2nnc3n(C)c(=O)c4ccccc4n23)CC1,-1.3
Cc1cc(C)n(CCCNC(=O)N2CCC(CS(N)(=O)=O)C2)n1 (stereo not given),0.5
CCCn1c(=O)n(-c2cc(Cl)c(OC)cc2OC)c(=O)c2c3c(sc21)CN(C(C)=O)CC3,-1
COCc1cc(Cn2cc(-c3ccnc4ccccc34)nn2)[nH]n1,0.39
CN(CC1Cc2ccccc2CN1C)C(=O)CCc1nc(-c2ccco2)no1 (stereo not given),-3
Cc1nn(CCC(=O)N2CC3CCC2CN(Cc2ccccn2)C3)c(C)c1C (stereo not given),1.2
Cc1c(C(=O)OC2CCCCCC2)[nH]c2c1C(=O)CC(c1ccccc1Cl)C2 (stereo not given),-0.41
COc1ccc(CCNC(=O)CCCCn2c(=O)c3ccccc3n(Cc3cccc(C)c3)c2=O)cc1OC,-0.62
Cc1ccc(CNC(=O)CCNS(=O)(=O)c2cccc3nsnc23)cc1,-1.3
CCOC(=O)c1c(C)oc2c1cc(NS(=O)(=O)c1ccc(C)cc1)c1ccccc12,-0.83
Cc1cccc(Cn2c(SCc3ccc(C(=O)N4CCCCCC4)cc3)nc3ccncc32)c1,-1.8
CCOc1ccc(C(=O)Nc2c(N3CCCC3)nn(C)c2C)cc1,-4.4
COc1ccc(CNC(=O)c2cc3cccc(OC)c3oc2=O)cc1,-1.8
COc1ccc(S(=O)(=O)N(CC(=O)NCCSc2ccccc2)c2ccc(C)cc2)cc1,0.68
Cc1nc(C2CCCN(C(=O)Nc3cccc(Cn4cncn4)c3)C2)n[nH]1 (stereo not given),-2
CCn1nc(C)c(CN(CCOC)Cc2cnc(C)cn2)c1C,-1.1
CC[C@H]1CN2CCc3cc(OC)c(OC)cc3C2C[C@@H]1CC1NCCc2cc(OC)c(OC)cc21 (stereo not given in full),-0.38
CCN(CCc1nc2ccc(C)cc2[nH]1)C(=O)c1ccccc1C1CCNC1 (stereo not given),-0.42
Cc1cc(C)n(Cc2ccc(C(=O)N(C)Cc3ncc(C)[nH]3)cc2)n1,2.1
Cc1ccc(Cl)cc1N1CCN(C(=O)C2CCC(CNS(=O)(=O)c3cccs3)CC2)CC1 (stereo not given),-1
CCOc1ccc(-c2cc(NC(=O)Nc3ccccc3C(F)(F)F)c(C(=O)OC)s2)cc1,-3.1
Cc1cc(CC(=O)N2CCC(c3nc4ccccc4o3)CC2)on1,-0.15
O=C(Cn1c(=O)n(-c2ccc(F)c(Cl)c2)c(=O)c2sc3ccccc3c21)NC1CCCCC1,-0.41
N#Cc1ccc(C(=O)NC2CC(=O)N(Cc3cccc4ccccc34)C2)cn1 (stereo not given),1.5
CC1CCCN(CCCNC(=O)c2cc3c(Cl)nc4ccccc4c3s2)C1 (stereo not given),-1.8
O=S(=O)(NCC(Nc1ccc(Cl)cc1)c1ccccc1)c1ccccc1 (stereo not given),0.59
COc1ccc(C2=NC(c3ccncc3)=Nc3ccc(Br)cc3N2)cc1,-0.81
O=C(COc1ccccc1[N+](=O)[O-])Nc1cc(-c2nc3cc(Cl)ccc3o2)ccc1Cl,-1

# Brought forward from above: two entries, then new ones.
SMILES,Bm FixLJ act
COc1ccc(C2=NC(c3ccncc3)=Nc3ccc(Br)cc3N2)cc1,-0.81
O=C(COc1ccccc1[N+](=O)[O-])Nc1cc(-c2nc3cc(Cl)ccc3o2)ccc1Cl,-1
COc1ccc(NC(=O)CC2C(=O)N(c3ccc(C)cc3)C(=O)N2CCc2ccccc2)cc1 (stereo not given),-1.7
COc1ccc(Cl)c(-c2nccn2CCNC(C)=O)c1F,-1.5
Cc1ccc2nc(-c3ccc(Cl)c(NC(=O)COc4cccc(C)c4C)c3)oc2c1,-1.9
CCOC(=O)c1cnn(-c2cccc(F)c2)c1C1CCNCC1,0.06
COc1ccc(Cl)cc1S(=O)(=O)N1CCC(O)C(C(=O)O)C1 (stereo not given),0.11
Cc1cc(CC2COCC2NC(=O)C2CCN(C3CCCC3)CC2)on1 (stereo not given),-1.1
O=C(CSc1nc(-c2ccccc2)no1)N1CCCCC1,-1.3
Cc1ccc(C(CC(=O)NCC2(c3ccccc3)CCCC2)c2ccccc2)c(O)c1 (stereo not given),0.67
CC(C)c1nc(C(=O)NC2COCC2Cc2ccncc2)cs1 (stereo not given),-0.89
CCc1ccc(NC(=O)Cn2c(=O)n(CCC(C)C)c(=O)c3cccnc32)cc1,0.13
CC(C)c1ccc(NC(=O)Cn2c(=O)oc3cc(S(=O)(=O)N4CCCC4)ccc32)cc1,-1.8
Cc1c(C#N)c2ccccc2n1CC(=O)N1CCC2(CCCO2)CC1,-1.6
O=C(CCCn1cncn1)N1CC(O)C(Cc2ccc3ccccc3n2)C1 (stereo not given),0.8
CCOc1ccc(CCNC(=O)C2CCN(Cc3nc(-c4ccccc4C)oc3C)CC2)cc1OCC,-1.3
CCOC(=O)c1sc(N2C(=O)c3oc4cc(C)c(C)cc4c(=O)c3C2c2ccc(C)cc2)nc1C (stereo not given),2

# Fetched by compound from above:
SMILES,Bm FixLJ act
CCOc1ccc(CCNC(=O)C2CCN(Cc3nc(-c4ccccc4C)oc3C)CC2)cc1OCC,-1.3
O=C(CCCn1cncn1)N1CC(O)C(Cc2ccc3ccccc3n2)C1 (stereo not given),0.8
COc1ccc(NC(=O)CC2C(=O)N(c3ccc(C)cc3)C(=O)N2CCc2ccccc2)cc1 (stereo not given),-1.7
CCOC(=O)c1sc(N2C(=O)c3oc4cc(C)c(C)cc4c(=O)c3C2c2ccc(C)cc2)nc1C (stereo not given),2

# Laid out differently: results already given
COc1ccc(NC(=O)CC2C(=O)N(c3ccc(C)cc3)C(=O)N2CCc2ccccc2)cc1 (stereo not given)
  Bm FixLJ act: -1.7

COc1ccc(Cl)c(-c2nccn2CCNC(C)=O)c1F
  Bm FixLJ act: -1.5

Cc1ccc2nc(-c3ccc(Cl)c(NC(=O)COc4cccc(C)c4C)c3)oc2c1
  Bm FixLJ act: -1.9

CCOC(=O)c1cnn(-c2cccc(F)c2)c1C1CCNCC1
  Bm FixLJ act: 0.06

# Later entries.
Molecule,Bm FixLJ act
CCOc1ccc(NC(=O)Cn2c(=O)n(Cc3ccccc3)c(=O)c3c4c(sc32)CN(C(C)=O)CC4)cc1,-0.58
Cc1sc2c(c1C)c(=O)n(-c1ccc(Cl)cc1)c(=O)n2Cc1cc(=O)n2ccccc2n1,0.2
COc1cc(OC)cc(C(=O)N2CCN(C(=O)COc3ccccc3)CC2)c1,-1.5
COc1cccc(NC(=O)CC(=O)Nc2ccc3nc4n(c(=O)c3c2)CCCCC4)c1,0.09
COC(=O)c1ccccc1-n1cc2c(c1-c1cccc(C)c1)c(=O)n(C)c(=O)n2C,-1.4
CC(=O)c1c(-c2ccc(C(=O)NCCc3scnc3C)cc2)cnn1C,1.1
Fc1ccc(Cc2cn3cc(-c4ccccc4)nc3s2)cc1,-1.6
O=c1c2sc3ccccc3c2n(Cc2ccccc2F)c(=O)n1Cc1ccccc1,-2.5
COc1cccc(C2CC(=O)Nc3c2c(=O)n(C)c2nc4ccccc4n32)c1 (stereo not given),-2.6
Cc1c(C(=O)OC2CCCC2)[nH]c2c1C(=O)CC(c1ccc(Cl)cc1)C2 (stereo not given),-1.6
O=C(NC1CCOCC1Oc1ccccn1)c1ccc(N2CCCC2=O)cc1 (stereo not given),-2.9
Cc1oc(-c2ccccc2F)nc1CS(=O)CC(=O)NC(C)C (stereo not given),-1.2
Cn1nc(C(=O)NCC2CCCN(c3ncccn3)C2)cc1C(F)(F)F (stereo not given),0.25
C=C(C)Cn1c(SCC(=O)c2ccc(OC)cc2)nc2sc3c(c2c1=O)CCCC3,-0.42
Cc1cccc(NC(=O)CS(=O)(=O)c2nc(-c3ccccc3)cn2-c2cccc(Cl)c2)c1C,-0.98
O=S(=O)(c1ccccc1)c1nc(-c2cccs2)oc1SCc1ccc(F)cc1,-0.57
CC(C)(O)C#Cc1ccc(C(=O)N2CCC(N3CCCC3=O)CC2)cc1,-0.33
Cc1cc(F)ccc1NC(=O)CCSc1nc(-c2ccco2)cc(C(F)(F)F)n1,-2.5
CCCCn1nc(C)cc1NC(=O)C1CC(=O)N(c2ccc(F)c(F)c2)C1 (stereo not given),0.98
COc1ccc(-c2noc(CN(C(=O)c3cc(OC)c(OC)cc3OC)C(C)C)n2)cc1,-1.4
O=C(O)[C@@]1(CC2CC2)CN(c2ncc(Cl)cn2)CCC1O (stereo not given in full),-0.67
COc1ccccc1OCC(=O)N(Cc1ccc(N(C)C)cc1)CC1CCCO1 (stereo not given),0.45
COc1cccc(NC(=O)Cn2c(=O)n(-c3cccc(OC)c3)c(=O)c3sc4ccccc4c32)c1,-0.69
COc1ccc(S(=O)(=O)N(CCc2ccccc2)CC(=O)NCc2ccc(C)cc2)cc1,1.5
O=C(CCS(=O)(=O)c1cc(Br)cc2c1N(C(=O)C1CC1)CC2)N1CCN(c2ccc(F)cc2)CC1,-0.18
Cc1cccc(CC(=O)NCc2cc3n(n2)CCCN(C2CCCCC2)C3)c1,-1.9
CCc1ccc(OCC(=O)Nc2ccc3oc(-c4ccc(OC)cc4)nc3c2)cc1,-1.2
Cc1ccc2oc(-c3cccc(NC(=O)c4cccc5c(Cl)cccc45)c3)nc2c1,-1.8
COC(=O)N1CCCCC1C(=O)NCCSc1nnc(C)s1 (stereo not given),-1.5
Cc1noc(C2CCC(=O)N(CCc3ccc(Cl)cc3)C2)n1 (stereo not given),1.5
COc1cccc2c1C1(CCN(C(=O)C3CC34CCNCC4)CC1)OCC2 (stereo not given),0.51
CCOC(=O)c1nnn(C(CC)C(=O)Nc2c(C)cccc2C)c1C(=O)OCC (stereo not given),-0.09
CCOc1ccc(-n2nc3ccc(NC(=O)c4cccc(F)c4)cc3n2)cc1,-2.2
COc1cc(NC(=O)c2cc3nc(-c4ccc(C)cc4)cc(C(F)(F)F)n3n2)cc(OC)c1OC,-0.7
Cc1ncnc(N2CCN(C(=O)C3=Cc4ccccc4OC=C3)CC2)c1C,-1.6
COC(=O)c1ccc(C2c3c(-c4ccccc4O)n[nH]c3C(=O)N2Cc2cccnc2)cc1 (stereo not given),-1.1
COC(=O)c1ccccc1NC(=O)CN(c1ccccc1OC)S(C)(=O)=O,-1.2
CCOc1ccc(NC(=O)CSc2nc(-c3cccs3)cc(C(F)(F)F)c2C#N)cc1,-0.92
CCOC(=O)c1sc2ncn(CC(=O)Nc3cc(Cl)ccc3C)c(=O)c2c1C,-1.1
O=C(C1CCC1)N1CCn2nc(CNS(=O)(=O)N3CCCCC3)cc2C1,-1.4
COc1ccc(Nc2nc3c(S(=O)(=O)c4ccccc4)nnn3c3ccc(Cl)cc23)cc1OC,-0.5
Cc1cc(Oc2nc3ccccn3c(=O)c2/C=C(\C#N)c2nc3ccccc3s2)ccc1Cl,-3.3
CCOc1ccc2nc(N3CCC(C(=O)Nc4ccc(Br)cc4F)CC3)sc2c1,-0.59
CN(C(=O)CCC(=O)NC1COCC1Cc1ccncc1)C1CCCCC1 (stereo not given),-0.28
CC(=O)c1[nH]c(C)c(C(=O)N(CC#Cc2ccccc2)C2CC2)c1C,-0.73
O=C1CC2C(CCN2C(=O)c2ccccc2N2CCOCC2)N1Cc1ccc(Cl)cc1 (stereo not given),0.85
O=C(Nc1ccc(F)cc1F)c1cc(-c2ccc3c(c2)OCO3)on1,-1.5
O=C(C1CCCN(C2CCN(Cc3cccnc3)CC2)C1)N1CCC(O)CC1 (stereo not given),0.77
COc1cccc2c1cc1c(=O)n(CC(=O)O)nc(C)n12,-0.35
Cc1oc2ncn(C)c(=O)c2c1C(=O)N1CCN(c2ccccc2)CC1,-0.85
COc1ccc(CCNC(=O)CCCn2c(=O)c3ccccc3n(CC(=O)Nc3cccc(C)c3)c2=O)cc1OC,-3.6
CCS(=O)(=O)c1nc(S(=O)(=O)c2ccc(C)cc2)c(NCc2ccc(Cl)cc2)s1,0.34
CC(=O)Nc1ccc(NC(=O)CCCc2nc(-c3ccc(C(C)(C)C)cc3)no2)cc1,-1.6
COc1cc(OC)c(NC(=O)CSc2nc3ccncc3[nH]2)cc1Cl,-2.1
CN(CCNC(=O)CN1CCCC(c2ccccc2)C1)S(C)(=O)=O (stereo not given),0.17

# Screens (PubChem BioAssay)
